# FGF22 binding: FGF22 (human) thermal shift binding; recombinant FGF22 thermal shift, SYPRO orange fluorescence; percent of sucrose octasulfate shift, DMSO zero; calls only at 9.99 µM; Q9HCT0; actives 1.5% (n = 340,000);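 active = melting point raised past a set limit in the mean and every replicate; three in four hits are not shown here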
# Target sequence (Q9HCT0 whole entry, looked up): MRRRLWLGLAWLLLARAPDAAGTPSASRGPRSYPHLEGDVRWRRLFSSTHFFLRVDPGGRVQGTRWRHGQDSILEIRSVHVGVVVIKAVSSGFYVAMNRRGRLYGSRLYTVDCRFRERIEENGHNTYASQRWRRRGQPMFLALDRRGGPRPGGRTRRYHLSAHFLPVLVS
# Ecoli rRNA inh: inhibits bacterial ribosomal RNA function over humanized ribosomes; E. coli WT GFP vs humanized-ribosome RFP mutants, fluorescence, 24 h; stronger effect = lower value; DMSO median 0, no signal -100; GFP signal change (wild-type ribosome), % (test concentration not listed); actives 1.6% (n = 350,000); AID 720706;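 active = significant combined selectivity score with lowered wild-type GFP, culture density cut under 30%, mutant RFP and density less affected; inactive = any of these conditions unmet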; note: one replicate is shown; some compounds called inactive have numbers as strong as hits
# Ecoli rRNA inh OD600: also measured in Ecoli rRNA inh; calls as there; OD600 change, %; measured here: OD600 growth;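 optical density of the mix in the first replicate; 0 = DMSO median and -100 = no signal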
# Ecoli rRNA inh RFP: recorded beside Ecoli rRNA inh, whose call it bears; RFP signal change, %; measured here: RFP humanized mutant strains;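 first replicate; 0 = DMSO median and -100 = no signal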
# Active calls of the source: *; i = inactive. These rows are one share of the data; count on the stated rates, not on these rows.
SMILES,FGF22 binding,Ecoli rRNA inh,Ecoli rRNA inh OD600,Ecoli rRNA inh RFP
CCCC(=O)Nc1ccc2c(c1)C(=O)N(C)[C@@H]1CC[C@@H](CC(=O)NCC3CCCCC3)O[C@@H]1CO2,i,-1,-9,1.8
CC(C)NC(=O)Nc1ccc2c(c1)C(=O)N([C@H](C)CO)C[C@H](C)[C@H](CN(C)Cc1ccc(Cl)c(Cl)c1)OCCCC[C@@H](C)O2,i,3,-4,2.0
Cc1[nH]c2ccccc2c1CC(=O)Nc1ccc(N(C)c2cccnc2)c(-c2ccc(F)c(F)c2)c1,i,-4,3,2.7
C[C@H]1CN([C@@H](C)CO)C(=O)c2cc(NS(=O)(=O)c3ccc(F)cc3)ccc2O[C@H]1CN(C)Cc1ccc(-c2ccccc2)cc1,i,8,-6,15
C[C@@H]1CN([C@@H](C)CO)C(=O)Cc2cc(NC(=O)Nc3ccccc3)ccc2O[C@H]1CN(C)Cc1ccc(C(=O)Nc2ccccc2N)cc1,i,-3,-5,1.8
C[C@@H]1CCCCO[C@@H](CN(C)S(=O)(=O)c2ccccc2)[C@@H](C)CN([C@H](C)CO)C(=O)c2cc(NS(=O)(=O)c3cn(C)cn3)ccc2O1,i,5,11,-2.6
COc1ccccc1CCn1cnc(-c2ccccc2)c1CC(C)C,i,-56,-76,-19
O=C(C[C@H]1C=C[C@H](NC(=O)Nc2ccc3c(c2)OCO3)[C@H](CO)O1)NCCCN1CCOCC1,i,-2,2,0.4
C[C@H](CO)N1C[C@H](C)[C@@H](CN(C)C(=O)C2CCCCC2)OCCCC[C@H](C)Oc2ccc(NC(=O)Nc3cccc4ccccc34)cc2C1=O,i,1,-2,-0.5
C[C@@H]1CN([C@H](C)CO)C(=O)Cc2cc(NC(=O)Nc3ccc4c(c3)OCO4)ccc2O[C@H]1CN(C)C(=O)NC1CCCCC1,i,-1,-2,-4.7
CN(C)CC(=O)N[C@@H]1CC[C@@H](CCNC(=O)C2CCCC2)O[C@H]1CO,i,2,2,-2.6
O=C(NCC[C@@H]1CC[C@@H](NS(=O)(=O)c2cccc(F)c2)[C@H](CO)O1)C1CCOCC1,i,-4,-4,1.7
C[C@H](CO)N1C[C@H](C)[C@H](CN(C)C(=O)c2cccc(F)c2)Oc2cc(-c3ccncc3)ccc2S1(=O)=O,i,-8,-23,-4.1
CN1CCCCN2[C@H](CO)[C@@H](c3ccc(-c4ccccc4)cc3)[C@@H]2C1,i,4,7,0.4
C[C@H](CO)N1C[C@H](C)[C@H](CN(C)Cc2ccc3c(c2)OCO3)Oc2ncc(-c3ccc(F)cc3)cc2C1=O,i,-2,-7,2.6
Cc1ccc(S(=O)(=O)Nc2ccc3c(c2)C(=O)N([C@H](C)CO)C[C@H](C)[C@@H](CN(C)CC2CC2)O3)cc1,i,6,5,0.2
CC(C)NC(=O)Nc1ccc2c(c1)C(=O)N([C@H](C)CO)C[C@@H](C)[C@H](CN(C)C(=O)c1ccccc1)OCCCC[C@H](C)O2,i,-1,2,0.7
O=C(C[C@@H]1C=C[C@H](NS(=O)(=O)c2ccccc2)[C@@H](CO)O1)NCc1ccncn1,i,3,1,-0.9
O=C(C[C@@H]1C=C[C@@H](NC(=O)C2CC2)[C@H](CO)O1)Nc1ccccc1,i,0,-2,-3.3
COc1ccc(S(=O)(=O)N(C)C[C@H]2OCCCC[C@H](C)Oc3ccc(NC(=O)NC4CCCCC4)cc3C(=O)N([C@@H](C)CO)C[C@H]2C)cc1,i,1,12,0.6
COc1cccc(S(=O)(=O)N[C@@H]2CC[C@H](CCn3cc(-c4ccccc4)nn3)O[C@H]2CO)c1,i,-2,4,0.3
C[C@@H]1CN([C@H](C)CO)C(=O)Cc2cc(NC(=O)CCCCCC(=O)Nc3ccccc3N)ccc2O[C@@H]1CN(C)S(C)(=O)=O,i,7,3,-0.3
Cc1noc(C)c1S(=O)(=O)N(C)C[C@H]1OCCCC[C@@H](C)Oc2ccc(NS(=O)(=O)c3ccccc3)cc2C(=O)N([C@@H](C)CO)C[C@H]1C,i,-2,-1,-0.4
C[C@@H]1CCCCO[C@@H](CN(C)Cc2ccc(C(=O)O)cc2)[C@@H](C)CN([C@@H](C)CO)C(=O)c2cc(NC(=O)c3ccncc3)ccc2O1,i,1,13,0.4
C[C@@H]1CN([C@@H](C)CO)C(=O)c2cccc(NC(=O)Nc3ccccc3)c2O[C@H]1CN(C)Cc1ccc(C(=O)Nc2ccccc2N)cc1,i,0,-4,0.0
CN1c2ccc(Br)cc2[C@@H]2[C@@H](CCN2C(=O)CN2CCOCC2)[C@@H]1CO,i,11,18,2.8
COc1ccc(-c2ccc([C@@H]3[C@@H](CO)N(C(=O)NC4CCCC4)[C@H]3C#N)cc2)cc1,i,1,-2,-1.4
Cc1ccc(S(=O)(=O)N[C@H]2CC[C@H](CCn3cc(C4CC4)nn3)O[C@H]2CO)cc1,i,-2,0,-2.5
Cc1ccc(S(=O)(=O)N(C)C[C@H]2OCCCC[C@@H](C)Oc3ccc(N(C)C)cc3C(=O)N([C@H](C)CO)C[C@H]2C)cc1,i,1,-4,0.7
COc1cccc(NC(=O)N(C)C[C@H]2Oc3cc(-c4cccc(C(=O)N(C)C)c4)ccc3S(=O)(=O)N([C@H](C)CO)C[C@H]2C)c1,i,-2,4,-3.1
COc1ccc(NC(=O)N(C)C[C@H]2Oc3cc(-c4ccncc4)ccc3S(=O)(=O)N([C@@H](C)CO)C[C@H]2C)cc1,i,-7,-1,-1.5
COCC(=O)N(C)C[C@H]1Oc2cc(C#Cc3cccnc3)ccc2S(=O)(=O)N([C@@H](C)CO)C[C@H]1C,i,3,2,-6.6
COc1ccccc1S(=O)(=O)N[C@H]1C=C[C@@H](CC(=O)N2CCCCC2)O[C@@H]1CO,i,-1,3,-3.4
O=C(Nc1ccc(Cl)cc1)N1C[C@H]2[C@@H](c3ccccc31)[C@@H](CO)N2C(=O)C1CC1,i,-18,-20,0.7
CCCC#Cc1cnc2c(c1)C(=O)N([C@H](C)CO)C[C@@H](C)[C@H](CN(C)C(=O)C1CCC1)O2,i,0,10,-1.9
C[C@@H]1CN([C@H](C)CO)C(=O)Cc2cc(NC(=O)Nc3ccc4c(c3)OCO4)ccc2O[C@H]1CN(C)CC1CC1,i,2,3,0.7
C/C=C/c1ccc2c(c1)O[C@@H](CN(C)C(=O)c1ccncc1)[C@H](C)CN([C@@H](C)CO)S2(=O)=O,i,-7,-6,-2.9
O=C(N[C@@H]1CC[C@H](CCNS(=O)(=O)c2ccc(Cl)cc2)O[C@H]1CO)c1ccccn1,i,2,1,-1.6
Cc1ccc(S(=O)(=O)N(C)C[C@@H]2OCCCC[C@H](C)Oc3ccc(NC(=O)c4ccccc4)cc3C(=O)N([C@H](C)CO)C[C@@H]2C)cc1,i,-1,4,2.2
COc1ccc(S(=O)(=O)N(C)C[C@@H]2Oc3ccc(NS(=O)(=O)c4ccc(Cl)cc4)cc3C(=O)N([C@H](C)CO)C[C@@H]2C)cc1,i,0,0,3.8
C[C@H]1CN([C@@H](C)CO)C(=O)c2cc(NC(=O)Nc3ccc(F)cc3)ccc2O[C@H]1CN(C)S(=O)(=O)c1ccc(F)cc1,i,-3,-9,3.0
COC(=O)c1cc2c(c3c4cc(C)ccc4n(S(=O)(=O)c4ccc(OC)cc4)c13)C(=O)N(Cc1ccccc1OC)C2,i,9,8,6.5
C[C@@H]1CCCCO[C@@H](CN(C)S(=O)(=O)c2ccccc2)[C@H](C)CN([C@H](C)CO)C(=O)c2cc(NC(=O)Nc3ccc4c(c3)OCO4)ccc2O1,i,1,10,-1.2
O=C(C[C@H]1C=C[C@@H](NC(=O)C2CC2)[C@H](CO)O1)NCC1CC1,i,2,-10,-2.3
CO[C@@H]1CN(C)C(=O)c2cc(NC(=O)Nc3ccccc3)ccc2OC[C@H](C)N(CC2CC2)C[C@H]1C,i,3,-6,0.6

# Four of the compounds above, field by field:
canonical_smiles: Cc1ccc(S(=O)(=O)Nc2ccc3c(c2)C(=O)N([C@H](C)CO)C[C@H](C)[C@@H](CN(C)CC2CC2)O3)cc1
  FGF22 binding = i | Ecoli rRNA inh = 6 | Ecoli rRNA inh OD600 = 5 | Ecoli rRNA inh RFP = 0.2
canonical_smiles: C[C@H]1CN([C@@H](C)CO)C(=O)c2cc(NC(=O)Nc3ccc(F)cc3)ccc2O[C@H]1CN(C)S(=O)(=O)c1ccc(F)cc1
  FGF22 binding = i | Ecoli rRNA inh = -3 | Ecoli rRNA inh OD600 = -9 | Ecoli rRNA inh RFP = 3.0
canonical_smiles: COc1ccccc1CCn1cnc(-c2ccccc2)c1CC(C)C
  FGF22 binding = i | Ecoli rRNA inh = -56 | Ecoli rRNA inh OD600 = -76 | Ecoli rRNA inh RFP = -19
canonical_smiles: Cc1[nH]c2ccccc2c1CC(=O)Nc1ccc(N(C)c2cccnc2)c(-c2ccc(F)c(F)c2)c1
  FGF22 binding = i | Ecoli rRNA inh = -4 | Ecoli rRNA inh OD600 = 3 | Ecoli rRNA inh RFP = 2.7

# Later entries
SMILES,FGF22 binding,Ecoli rRNA inh,Ecoli rRNA inh OD600,Ecoli rRNA inh RFP
C[C@@H]1CN([C@@H](C)CO)C(=O)Cc2cc(NC(=O)Nc3ccc(F)cc3)ccc2O[C@@H]1CN(C)Cc1ccc(C(F)(F)F)cc1,i,2,7,3.0
C[C@@H]1CN([C@H](C)CO)C(=O)c2cccc(NS(=O)(=O)c3cccs3)c2O[C@@H]1CN(C)CC1CCCCC1,i,0,7,0.7
O=C(C[C@@H]1CC[C@@H]2[C@H](COC[C@H](O)CN2Cc2ccc(Cl)cc2)O1)NCc1cccc(F)c1,i,-7,-30,-3.0
CO[C@H]1CN(C)C(=O)c2cc(NC(=O)c3cc(C)on3)ccc2OC[C@H](C)N(CC2CC2)C[C@@H]1C,i,-1,5,0.7
CC(C)C#Cc1ccc2c(c1)O[C@H](CN(C)S(=O)(=O)c1cn(C)cn1)[C@H](C)CN([C@@H](C)CO)S2(=O)=O,i,1,-6,-2.2
O=C(C[C@@H]1C[C@@H]2c3cc(NC(=O)c4ccc5c(c4)OCO5)ccc3O[C@@H]2[C@H](CO)O1)NCc1ccc(Oc2ccccc2)cc1,i,-2,-11,-1.8
COCC(=O)N(C)C[C@H]1Oc2ncc(C#CCC3CCCC3)cc2C(=O)N([C@@H](C)CO)C[C@H]1C,i,2,-4,-2.7
Cc1noc(C)c1S(=O)(=O)Nc1ccc2c(c1)C(=O)N([C@H](C)CO)C[C@H](C)[C@H](CN(C)CC1CCCCC1)OCCCC[C@H](C)O2,i,4,-3,7.7
CCC(=O)N1C[C@@H](C)[C@H](OC)CN(C)C(=O)c2ccc(NC(=O)c3ccc(OC)cc3)cc2OC[C@H]1C,i,3,13,0.2
COc1ccccc1S(=O)(=O)N(C)C[C@@H]1OCc2ccccc2-c2ccccc2C(=O)N([C@H](C)CO)C[C@H]1C,i,1,-1,-1.0
O=C(C[C@H]1CC[C@H]2[C@@H](COC[C@@H](O)CN2CCc2ccccc2)O1)NCCCN1CCOCC1,i,2,17,-3.4
COc1ccc(NC(=O)Nc2ccc3c(c2)C(=O)N([C@@H](C)CO)C[C@@H](C)[C@@H](CN(C)C(=O)C2CCCCC2)OCCCC[C@H](C)O3)cc1,i,-2,3,0.9
CO[C@H]1CN(C)C(=O)c2cc(NC(=O)C3CCCC3)ccc2OC[C@@H](C)N(C(=O)CC2CC2)C[C@@H]1C,i,-2,-1,-2.1
C[C@@H]1CN([C@H](C)CO)C(=O)c2cc(NS(C)(=O)=O)ccc2O[C@@H]1CN(C)C,i,1,3,-2.4
CO[C@H]1CN(C)C(=O)c2cc(NS(=O)(=O)c3cccc(F)c3)ccc2OC[C@@H](C)N(Cc2cc(F)ccc2F)C[C@@H]1C,i,1,-4,2.8
C[C@H](CO)N1C[C@H](C)[C@H](CN(C)Cc2ccccc2C(F)(F)F)OCc2cn(nn2)CCCC1=O,i,-2,-5,-1.2
COCC(=O)Nc1ccc2c(c1)[C@@H]1C[C@H](CC(=O)NC3CCCC3)O[C@H](CO)[C@@H]1O2,i,-1,23,-2.0
C[C@H]1CN([C@@H](C)CO)S(=O)(=O)c2ccc(C#CCN(C)C)cc2O[C@@H]1CN(C)C(=O)c1ccccc1F,i,6,13,-3.1
O=C(NC1CCCC1)N1CCCCN2[C@H](C1)[C@H](c1ccc(-c3ccncc3)cc1)[C@@H]2CO,i,-1,6,-6.3
CN1CCCCN2[C@H](C1)[C@H](c1ccc(Br)cc1)[C@@H]2CO,i,3,26,0.0
CNC(=O)C[C@H]1CC[C@H]2[C@@H](COc3ccc(NC(=O)c4cc(C)on4)cc3C(=O)N2C)O1,i,6,11,3.2
